Bioassay records from PubChem BioAssay.
Menin MLL FP FL = qHTS Assay for Inhibitors Targeting the Menin-MLL Interaction in MLL Related Leukemias: Competition With Fluorescein Labeled MLL-derived Peptide; Fluorescence polarization, fluorescein-MLL peptide displacement from menin; FP activity change, % at 61.4 µM; 290,000 tested, under 10 active; AID 1766, 2009; inconclusive = falling polarisation curve, or a change in total fluorescence; inactive = total fluorescence flat and polarisation flat or rising; no compound was filed as active; the % refers to the polarisation; negative = inhibition;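 note: % of control where 0% means no effect; inhibitors lower the polarisation; unlabelled MLL peptide was the positive control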
ClpP mod = qHTS Assay for Activators of ClpP; AID 651965, 2013; ATP-dependent Clp protease proteolytic subunit (Bacillus subtilis (strain 168)), P80244; purified B. subtilis ClpP, FRET peptide cleavage, 20 min; actives 1.9% (n = 340,000); Potency, µM (titrated, usually from 57.5 µM), inactives show top-dose activity change, negative = active; active = well fitted falling curve with a large enough effect; inconclusive = small, poorly fitted or top-dose-only effect; inactive = no such curve, though single readings can be large or run the other way; note: potency is the fitted concentration of half-maximal effect; the source files actives as falling curves though it sought activators and does not explain the sign; nearly all actives have a fitted effect of over 65% in size; many hits overshoot -100%
Target sequence (P80244 whole entry, looked up): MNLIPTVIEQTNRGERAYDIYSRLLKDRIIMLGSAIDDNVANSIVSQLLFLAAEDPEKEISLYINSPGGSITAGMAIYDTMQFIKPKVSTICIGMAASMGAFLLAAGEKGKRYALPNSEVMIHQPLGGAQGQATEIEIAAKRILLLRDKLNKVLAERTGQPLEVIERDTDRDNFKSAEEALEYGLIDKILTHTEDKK
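FRET quenching reversal measured ClpP activation: 10 microg/mL B. subtilis ClpP at pH 8 with the FRET-FV decapeptide, read at 430 nm after 320 nm excitation. The 20-min minus 0-min signal was scaled between DMSO/no-enzyme wells and ADEP (5.8 microM final).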
gsp ag = qHTS for Agonist of gsp, the Etiologic Mutation Responsible for Fibrous Dysplasia/McCune-Albright Syndrome: qHTS; gsp mutant cells, cAMP HTRF, 30 min; control for the full effect not named in the record; AID 624287, 2012; Potency, µM (doses to about 76.9 µM), for inactives: at the highest dose activation (cAMP increase), hits mostly activators; actives 0.13% (n = 340,000); active = well fitted activation curve with a large enough effect; inconclusive = small, poorly fitted or top-dose-only effect, or another doubt; inactive = no such curve, though single readings can be large or run the other way; cell line not stated here;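 note: phosphodiesterase inhibitor Ro 20-1724 added with compounds to block cAMP breakdown; potency is the fitted concentration of half-maximal effect; nearly all actives have a fitted effect of over 60% in size; about a fifth of the inactives were tested at one dose only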
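Cells stably selected in G418 were plated at 2000/well, grown 16-24 hr, then given compounds in DMSO with the PDE inhibitor […] (300 uM solution added) for 30 min at 37C; cAMP was read by HTRF.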
gsp antagonist = qHTS for Antagonists of gsp, the Etiologic Mutation Responsible for Fibrous Dysplasia/McCune-Albright Syndrome: qHTS; AID 624288, 2012; actives 0.4% (n = 340,000); Potency, µM (doses to about 76.9 µM), for the others: at the top dose activity change, negative = inhibition, most hits filed as inhibitors; gsp-mutant cells, cAMP HTRF, 30 min; control for the full effect not named in the record; active = falling curve of any shape with a large fitted effect; inconclusive = falling curve, mostly with a smaller effect; inactive = flat or rising curve; cell line not stated here;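 note: intracellular cAMP measured with PDE inhibitor Ro 20-1724 present during compound exposure; potency is the fitted concentration of half-maximal effect; % is set by controls: 0 for no effect and ±100 for the full control effect; nearly all actives have a fitted effect of over 65% in size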
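Measurement of cellular cAMP by homogeneous time-resolved fluorescence following a 30 min compound exposure at 37C. The PDE inhibitor […] was present throughout; the assay buffer was DPBS with 0.05% BSA and 0.005% Tween 20.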
Sfp PPTase inh = qHTS Assay for Inhibitors of Bacillus subtilis Sfp phosphopantetheinyl transferase (PPTase); Biochemical Sfp PPTase activity, qHTS; actives 3.5% (n = 310,000); Potency, µM, for inactives: max response, negative = inhibition, usual class: inhibitors; 4'-phosphopantetheinyl transferase ffp (Bacillus subtilis), Q9F4F7; active = well fitted inhibition curve with a large enough effect; inconclusive = small, poorly fitted or top-dose-only effect, or another doubt; inactive = no such curve, though single readings can be large or run the other way;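 note: the enzyme is Sfp with the accession as filed and its product quenches rhodamine fluorescence; potency is the fitted concentration of half-maximal effect; 0% = enzyme reaction without inhibitor and -100% = no enzyme wells; top concentration of the series not given in the record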
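Fluorescence-quenching assay with 15 nM Sfp, 5 uM rhodamine-CoA and 12.5 uM BHQ-2-labelled ybbR peptide in pH 7.6 Hepes/MgCl2 buffer. Enzyme was pre-incubated with compound for 15 min at room temperature. Rate was taken from the 30-min fluorescence change (525/598 nm).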
TRPV1 PAM = HTS Assay for Compounds that Act as Potentiators of the Vanilloid Receptor 1. TRPV1-expressing cells, Fluo-8 calcium influx, capsaicin EC20 potentiation; host cell line not named in the record; control for the full effect not named in the record. potentiation, % at 8.33 µM. actives 0.02% (n = 320,000). AID 540277, 2011; active means potentiation above 80%; inconclusive means 30% to 80%; inactive means below 30%; note: 0% is about no effect
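Fluo-8 calcium influx in TRPV1-expressing cells, kinetic read (ex 480/em 520 nm). Compound added and read 3 min for agonist activity, followed by capsaicin at EC20 final and 2 min further read for enhancement.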
D2 potentiator = Beta-Arrestin HTS for Positive Allosteric Modulators of the Human D2 Dopamine Receptor: Potentiators; potentiation, % (test concentration not listed); DiscoveRx D2 beta-arrestin cells, luminescence, 90 min; 100% = 57 uM dopamine signal; actives 0.23% (n = 360,000); D(2) dopamine receptor (Homo sapiens), P14416; active = potentiation of 50% or more; inconclusive = 30% to 50%; inactive = 30% or less;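 note: compound concentration not given in the record; tested on top of an EC20 dose of dopamine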
Target sequence (P14416 whole entry, looked up): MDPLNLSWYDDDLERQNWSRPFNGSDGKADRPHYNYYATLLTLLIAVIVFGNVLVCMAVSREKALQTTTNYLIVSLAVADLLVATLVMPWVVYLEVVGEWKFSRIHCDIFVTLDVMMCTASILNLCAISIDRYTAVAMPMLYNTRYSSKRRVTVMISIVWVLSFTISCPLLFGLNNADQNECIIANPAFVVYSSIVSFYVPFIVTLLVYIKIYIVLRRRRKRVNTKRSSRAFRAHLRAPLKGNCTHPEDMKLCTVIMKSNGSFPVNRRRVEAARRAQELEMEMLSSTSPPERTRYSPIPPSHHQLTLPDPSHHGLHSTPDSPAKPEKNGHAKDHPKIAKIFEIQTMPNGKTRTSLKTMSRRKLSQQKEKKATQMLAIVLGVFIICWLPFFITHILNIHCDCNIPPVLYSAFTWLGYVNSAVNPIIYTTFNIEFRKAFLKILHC
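D2 cells co-treated with compound plus 50 nM dopamine (EC20) for 90 min at 37 deg C to detect potentiation. Beta-arrestin recruitment was read as enzyme-fragment luminescence after 1 h at ambient temperature. Full response was set by 57 uM dopamine.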
* marks the source's active call; other numbers are inactive results; ? = inconclusive; . = no result given; [ ] = dose if it differs, or a comment. Random draw from the library, and some 5.1% of all compounds hit somewhere here.

SMILES	Menin MLL FP FL	ClpP mod	gsp ag	gsp antagonist	Sfp PPTase inh	TRPV1 PAM	D2 potentiator
COc1ccc(OCC(=O)Nc2cccc3ncccc23)cc1	0.7	0.7%	-40%[inhibitor]	-12%	9%	-2	0
Cc1cc(C)c2nc(N3CCC(C(=O)NCCCN4CCCCC4)CC3)sc2c1	-1.3	-1.0%	12%	13%	-1%	4	6
COC(=O)c1c(NC(=O)C2COc3ccccc3O2)sc2c1CCN(C(=O)OC)C2 (stereo not given)	.	?	-58%[inhibitor]	.	.	.	-3
C/C=C/c1ccc(OCCCCn2cncn2)c(OC)c1	-1.0	-5.0%	3%	-3%	1.1µM*	14	-14
CC1=C(C)CC2(SC1)C(=O)N(c1ccccc1)N=C2N (stereo not given)	1.7	-1.3%	3%[15.4 µM]	-25%	3%	8	-7
CCC(Sc1nnnn1C)C(=O)Nc1ccc(C(C)=O)cc1 (stereo not given)	1.2	1.0%	1%	8%	8%	23	-20
Cc1ccc(-c2csc(N3CCC[C@@H]3C(=O)NCCn3c(-c4ccncc4)nc4ccccc43)n2)cc1	0.6	-0.6%	11%	?	-6%	-11	17
Cc1cccc(C)c1NC(=O)C(c1ccc([N+](=O)[O-])cc1)N(C)C(=O)c1ccccn1 (stereo not given)	-23	-9.0%	16%	10%	-7%	3	-9
CC1=C/C(=C/N(C)c2ccccc2)C(=O)S1	6.6	-1.3%	-12%	8%	28µM*	-5	-11
COc1ccc(S(=O)(=O)Cc2ccc(C(=O)N3CCN(c4cccc(C)c4)C(C)C3)o2)cc1 (stereo not given)	2.1	1.0%	14%	-4%	-4%	-22	1
COCCNC(=O)Cn1cc2c(n1)CCCCC2	-2.0	-0.4%	0%	6%	5%	3	-1
CCCc1ccc(OCc2ccc(C(=O)NN)o2)c(OC)c1	0.1	.	-42%[inhibitor]	1%	2%	-15	-2
O=C(Nc1cccc(S(=O)(=O)NC2=NCCC2)c1)C1CCC1	-1.1	.	12%[15.4 µM]	.	17%	24	-8
Cn1cc(CN2CCC(n3nccc3NC(=O)CCCc3ccccc3)CC2)cn1	.	-1.1%	-33%[inhibitor]	10%	4%	0	-21
CCC(C)c1ccccc1N1CC(C(=O)N2CCN(S(=O)(=O)c3ccc(F)cc3)CC2)CC1=O (stereo not given)	.	-18%	-56%[inhibitor]	2%	.	-6	12
COc1ccc(OC)c(C2=NOC(C(=O)N3CCN(c4ccccc4)CC3)C2)c1 (stereo not given)	0.1	?	-36%[inhibitor]	-4%	4%	2	-2
CCOc1ccc(CN(C)CCc2ccccn2)cc1	-6.9	.	-28%	9%	?	-26	-12
O=C(NCc1ccccc1)c1ccc(Oc2ccc(C(=O)NCc3ccccc3)cc2)cc1	-0.9	-2.2%	20%	-2%	22%	1	-13
O=C(COC(=O)/C=C/c1ccccc1Cl)NCCNC(=O)COC(=O)/C=C/c1ccccc1Cl	-1.0	1.9%	-9%	-7%	-5%	1	5
COc1cc(/C=N/N2C(=O)c3ccccc3C2=O)ccc1O	.	-4.4%	2%	-12%	8%	-4	-9
CCCn1c(SCC(=O)NC(=O)Nc2ccc(C)cc2C)n[nH]c1=O	1.6	0.0%	-44%[inhibitor]	11%	-16%	-5	-17
O=S(=O)(/C=C/c1ccccc1)Nc1ccc2c(c1)OCO2	-2.5	-0.5%	11%	-10%	11%	-3	1
CSc1cccc(NC(=O)C(C)NS(=O)(=O)c2ccc(F)cc2)c1 (stereo not given)	1.7	0.4%	-47%[inhibitor]	8%	0%	14	-8
CC(C)(C)NC(=O)CN(C(=O)CS(=O)CC(=O)Nc1ccc(F)cc1)c1cccc(F)c1 (stereo not given)	-1.6	0.8%	12%	5%	12%	11	-11
Cc1cccc(NC(=S)/N=C(\N)Nc2nc(C)c3ccc(C)cc3n2)c1	-0.5	0.6%	11%	1%	2%	10	-13
NCC(O)CN(c1ccccc1)c1ccccc1 (stereo not given)	1.2	.	-1%[15.4 µM]	7%	15%	-2	-2
Cc1ccc(C2=C/C(=C\c3cccnc3)C(=O)O2)cc1	7.3	-1.5%	-10%	38%[activator]	?	-17	-12
CC(C)[C@H]1CC[C@@H](C)C(C(=O)c2ccccc2)C1=O (stereo not given in full)	-26	1.5%	-29%	0%	6%	-1	10
CC(C)(C)CN1CCN(Cc2nc(-c3ccc(F)cc3)cs2)CC1CCO (stereo not given)	4.0	-3.8%	-9%[15.4 µM]	-2%	7%	3	-7
CCc1ccccc1NC(=S)NCc1ccc2c(c1)OCO2	0.7	0.6%	22%	11%	11%	-4	-10
CCCCNC(=S)N(C)/N=C/c1c(F)cccc1F	4.7	0.2%	28%	-16%	-20%	6	-2
COc1ccc(CCNC(=O)CCN2C(=O)[C@@H]3Cc4ccccc4CN3C2=O)cc1	.	-0.1%	-11%	9%	1%	-11	8
O=[N+]([O-])c1ccc(S(=O)(=O)Nc2cccc(-c3ccc(N4CCCC4)nn3)c2)cc1	.	-0.7%	-48%[inhibitor]	-17%	.	7	?
Cc1cccc(NC(=O)CNC(=O)CN2C(=O)NC3(CCCCC3C)C2=O)c1C (stereo not given)	.	2.3%	-8%[15.4 µM]	10%	.	-5	-19
COc1ccc(NC(=O)/C(=C\c2ccc(F)cc2)NC(=O)c2ccco2)cc1	4.1	.	3%[15.4 µM]	-3%	9%	?	-7
c1ccc(-c2nnc3n2CCCC3)cc1	2.1	0.3%	?	6%	5%	-19	-3
CCOC(=O)Cc1c(C)nc2c(-c3ccccc3OC)c(C)nn2c1C	-1.7	-0.4%	-1%	-10%	4%	-3	-17
c1ccc2c(c1)oc1c(NCCCn3ccnc3)ncnc12	-0.6	-8.2%	13%	5%	3%	3	-6
CCN1c2ccccc2-c2nc3ccccc3n2C1c1ccncc1 (stereo not given)	-1.6	?	?	-4%	-4%	-1	3
CCn1cc(C2=NC(C)CO2)c2ccccc21 (stereo not given)	-1.5	?	-45%[inhibitor]	1%	1%	-13	-10
O=C(c1cn(-c2ccccc2)nc1-c1ccncc1)n1nnc2ccccc21	.	-22%	24%	5%	.	.	-24
COc1ccc(Br)cc1/C=N/NC(=O)CN1CCCCC1	2.3	-5.0%	-24%	6%	6%	2	-2
Cc1cccc(OCC(=O)Nc2ccc(C(=O)O)cc2NC(=O)COc2cccc(C)c2)c1	.	-0.6%	-58%[inhibitor]	-16%	7%	9	-9
Nc1ncnc2c1ncn2C1CCCC1	3.1	-4.1%	.	-16%	.	-2	-3
CCOC(=O)C1CCCN(C(=O)c2cn(CC(C)C)c(=O)c3cc(OC)c(OC)cc23)C1 (stereo not given)	1.2	-13%	-2%	4%	15%	?	-4
NC(CSC12CC3CC(CC(C3)C1)C2)C(=O)O (stereo not given)	2.0	-1.0%	-83%[inhibitor]	-6%	?	-5	6
Cc1ccc2c(c1)CCCN2C(=O)c1cc(C)on1	.	0.1%	1%	0%	20%	-2	-10
COC(=O)c1ccc(CS(=O)(=O)c2ccc(C)cc2)cc1	4.4	-0.9%	-27%	0%	8%	-13	11
O=C(NCC1CCCO1)C1CCC(N2C(=O)c3ccccc3C2=O)CC1 (stereo not given)	2.4	-2.5%	-2%	-4%	16%	-11	-1
O=C(NCCC(=O)N1CCCCCCC1)c1ccc(Cl)cc1	.	-1.3%	-47%[inhibitor]	15%	.	4	8
O=C(CN1C(=O)NC2(CCCCCCC2)C1=O)Nc1ccc(OC(F)F)cc1	.	1.3%	16%	18%	.	.	-16
CCN(Cc1ccc2c(c1)OCCO2)C(=O)CN1C(=O)NC2(CCc3ccccc32)C1=O (stereo not given)	.	0.7%	-3%	1%	.	-1	-1
COC(=O)c1cc(-c2cccc([N+](=O)[O-])c2)c2c(=O)n(C)c(=O)n(C)c2n1	-7.0	-2.9%	?	6%	9%	1	-2
CC1(C)CC(C)(c2ccc(O)cc2O)N(c2cccc(Cl)c2)C(=S)N1 (stereo not given)	1.0	-0.9%	0%	9%	27%	-7	-11
NC(=O)c1nsc(C(=O)N(c2ccccc2)C(C(=O)NCc2ccc(F)cc2)c2ccc(O)cc2)c1N (stereo not given)	-5.6	.	28%	-21%	26%	-2	23
COc1ccc(N=C2SCC(=O)N2C)cc1	.	-2.2%	?	.	.	.	-3
CCC(=O)Nc1ccc(Cl)c(NC(=S)NC(C)=O)c1	-3.0	.	-20%	-14%	-26%	6	0
CC(=O)c1cccc(N=c2scc(-c3ccc(S(=O)(=O)N4CCOCC4)cc3)n2CCO)c1	5.4	-4.3%	7%	-19%	-9%	-16	-26
CCn1ccnc1[C@@H]1C[C@H]2CN(c3ccccc3OC)C(=O)[C@]23CCCN13	0.3	.	-1%	2%	2%	0	-2
O=C(O)/C(=C\c1ccc(F)cc1)c1ccc(-c2ccccc2)cc1	.	-0.1%	24%[15.4 µM]	-41%	11%	11	-2
O=C(c1cc(-c2cccc(Br)c2)nc2ccccc12)N1CCCC1	.	-0.5%	8%	?	-13%	1	1
CCCCN([C@H](CO)C(C)C)S(=O)(=O)c1ccccc1Br	.	-0.3%	.	-3%	.	.	-5

Sfp PPTase inh: what is marked active above
mol | Menin MLL FP FL | gsp ag | gsp antagonist | Sfp PPTase inh | D2 potentiator
C/C=C/c1ccc(OCCCCn2cncn2)c(OC)c1 | -1.0 | 3% | -3% | 1.1µM* | -14
CC1=C/C(=C/N(C)c2ccccc2)C(=O)S1 | 6.6 | -12% | 8% | 28µM* | -11
